ALR inh: inhibitors of human ALR sulfhydryl oxidase, primary screen, biochemical, H2O2 detection, HRP-luminol luminescence, single point | inhibition, % (test concentration not listed) | actives 3.8% (n = 290,000) | purified ALR, DTT oxidation;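 active = mean and each replicate at 75% or more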;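 note: stock transfer was 7.5 nL into about 7.5 µL; 0% = neutral wells and 100% = wells with inactivated enzyme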
Target sequence (P55789 whole entry, looked up): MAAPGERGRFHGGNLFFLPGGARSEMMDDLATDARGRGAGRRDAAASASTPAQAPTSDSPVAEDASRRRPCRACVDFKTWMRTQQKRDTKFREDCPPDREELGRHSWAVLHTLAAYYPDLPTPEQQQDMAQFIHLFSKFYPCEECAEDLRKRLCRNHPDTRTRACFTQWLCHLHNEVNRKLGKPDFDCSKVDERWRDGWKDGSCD
B2AR ag: beta2AR agonists driving receptor internalization, primary screen, cell-based, FAP fluorogen, flow cytometry; Am2.2-beta2AR cells; reference of the scale not given here; response, % (no concentration beside the values); actives 0.43% (n = 340,000);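 active = response above a set limit, near 3 SD of response in nonfluorescent compounds, cut at about 42% in these data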;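 note: stock transfer was 100 nL into about 11 µL; a reference agonist was the positive control; negative values mostly stem from fluorescent compounds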
Target sequence (P07550 whole entry, looked up): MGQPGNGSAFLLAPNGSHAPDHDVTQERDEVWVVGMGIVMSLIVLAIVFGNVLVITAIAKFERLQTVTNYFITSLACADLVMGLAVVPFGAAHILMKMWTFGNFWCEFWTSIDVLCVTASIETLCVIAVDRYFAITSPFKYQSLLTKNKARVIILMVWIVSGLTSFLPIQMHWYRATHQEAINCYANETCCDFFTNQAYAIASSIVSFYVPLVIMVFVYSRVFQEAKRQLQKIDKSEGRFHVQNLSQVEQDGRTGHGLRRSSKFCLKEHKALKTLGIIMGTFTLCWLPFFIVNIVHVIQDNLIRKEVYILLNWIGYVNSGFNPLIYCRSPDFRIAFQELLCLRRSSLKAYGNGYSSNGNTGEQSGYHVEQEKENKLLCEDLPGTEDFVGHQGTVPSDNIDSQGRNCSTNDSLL
rRNA inh HTS: reduced GFP signal of wild-type E. coli, primary screen, bacterial rRNA inhibitor project, GFP/RFP fluorescence, OD600, single point; E. coli WT GFP vs humanized-ribosome RFP mutants, 24 h; active compounds read low; DMSO median 0, no signal -100; GFP signal change (wild-type ribosome), % (no concentration beside the values); actives 1.6% (n = 350,000); AID 720706, 2013;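 active = significant combined selectivity score with lowered wild-type GFP, culture density cut under 30%, mutant RFP and density less affected; inactive = any of these conditions unmet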; note: one replicate is shown; some compounds called inactive have numbers as strong as hits
FGF22 binding: binders of human FGF22 protein, primary screen, FGF22 synaptogenesis inhibitor project, biophysical, thermal shift, single point; calls only at 9.99 µM; actives 1.5% (n = 340,000); AID 651658, 2012; recombinant FGF22 thermal shift, SYPRO orange fluorescence; percent of sucrose octasulfate shift, DMSO zero; Fibroblast growth factor 22 (Homo sapiens), Q9HCT0;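 active = melting point raised past a set limit in the mean and every replicate; three in four hits are not shown here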
Ecoli growth: E. coli growth inhibition, primary screen, OD600; Escherichia coli growth, 23 h; active compounds read low; OD600 absorbance (concentration not given with the values); actives 0.21% (n = 330,000); AID 1053175, 2014;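 active = OD600 absorbance below the run mean of sample wells minus 3.6 SD, in any replicate, cut at about 0.56 in these data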;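 note: stock transfer was 300 nL into about 60 µL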
UCH37 inh: inhibitors of human UCH37 deubiquitinase, primary screen, biochemical, Ub-AMC cleavage, fluorescence | purified proteasome/UCH37 | actives 0.33% (n = 330,000) | inhibition, % (no concentration beside the values) | Ubiquitin carboxyl-terminal hydrolase isozyme L5 (Homo sapiens), Q9Y5K5;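 active = mean of two replicates above 20%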;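 note: 0% = compound-free wells with enzyme and 100% = wells lacking proteasome; stock transfer was 100 nL into about 20 µL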
Target sequence (Q9Y5K5 whole entry, looked up): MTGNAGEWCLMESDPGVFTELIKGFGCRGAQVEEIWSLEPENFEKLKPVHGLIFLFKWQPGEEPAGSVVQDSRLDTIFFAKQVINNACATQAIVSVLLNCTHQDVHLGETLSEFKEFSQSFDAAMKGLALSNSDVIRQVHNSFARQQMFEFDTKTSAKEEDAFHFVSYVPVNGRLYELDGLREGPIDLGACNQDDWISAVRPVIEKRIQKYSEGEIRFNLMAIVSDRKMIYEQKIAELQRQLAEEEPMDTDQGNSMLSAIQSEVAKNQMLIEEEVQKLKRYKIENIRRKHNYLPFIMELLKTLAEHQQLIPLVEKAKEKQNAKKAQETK
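Material: human UCH37 enzyme supplied as purified proteasome complex. Measure: % inhibition of Ub-AMC cleavage fluorescence. Medium: pH 7.4 Tris-HCl (50 mM) with ovalbumin, ATP-MgCl2, DTT. Times: 30 min preincubation with enzyme, 25 min cleavage at room temperature. Detection: AMC fluorescence intensity at 355/460 nm.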
HNF4A DNA FP: change in binding of human HNF4A to DNA, primary screen, biochemical, fluorescence polarization, FITC-DNA; Hepatocyte nuclear factor 4-alpha (Homo sapiens), P41235; 1 h; activity change, % at 10 µM; actives 0.3% (n = 360,000); AID 1224865, 2016; in the data active = activity change above about 30%, passing the limit was not always enough;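 note: controls were the assay level and a saturating level of protein; the project sought stronger binding though the title names inhibitors; some compounds called inactive have numbers as strong as hits; positive values seem to mean higher polarization but the record does not say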
rRNA inh HTS OD600: further read-out of rRNA inh HTS, marked with its call; OD600 change, %; measured here: OD600 growth;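 optical density of the mix in the first replicate; 0 = DMSO median and -100 = no signal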
rRNA inh HTS RFP: recorded beside rRNA inh HTS, whose call it bears; RFP signal change, %; measured here: RFP humanized mutant strains;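 first replicate; 0 = DMSO median and -100 = no signal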
Active calls of the source: *; i = inactive; . = no result given. The list is partial; the hit share may differ from the screen's.

cpd	canonical_smiles	ALR inh	B2AR ag	rRNA inh HTS	rRNA inh HTS OD600	rRNA inh HTS RFP	FGF22 binding	Ecoli growth	UCH37 inh	HNF4A DNA FP
1	CN(C)CCCNC(NC(=O)/C=C/c1ccccc1)C(Cl)(Cl)Cl (stereo not drawn)	-10	-1	1	-2	-3.6	i	0.72	3.4	9.9
2	CC1=CC(C)(C)NC(=S)N1c1ccc(N(C)C)cc1	.	2	-7	-3	2.5	.	0.72	1.2	-2.6
3	CN(c1ccccc1)S(=O)(=O)c1cccc(NC(=O)CSc2n[nH]c(N)n2)c1	-1	14	-23	-20	6.8	i	0.7	1.1	-0.7
4	CCN(c1ccccc1)S(=O)(=O)c1ccc(C(=O)Nc2nnc(-c3ccco3)o2)cc1	8	6	-36	-52	4.7	i	0.69	5.9	-1.3
5	O=C(Nc1nnc(C2CC2)s1)c1cncc(Br)c1	.	-4	5	12	-1.9	i	0.67	4.1	0.3
6	CN(C(=O)COC(=O)c1ccc(Br)c([N+](=O)[O-])c1)c1c(N)n(Cc2ccccc2)c(=O)[nH]c1=O	-1	-8	7	8	-0.7	i	0.73	6.3	0.6
7	C=C(C)C1CC=C(C)/C(=N/NC(=O)c2ccc(NC(=O)CCC)cc2)C1 (stereo not drawn)	-6	-22	.	.	.	.	.	.	5.3
8	O=C(CSc1nc2[nH]ncc2c(=O)[nH]1)NCCc1ccccc1	-1	1	17	16	3.6	i	0.71	4.7	1.5
9	O=S(=O)(c1ccccc1)N1CCN(Cc2ccccc2)c2ccccc21	.	8	-2	-7	0.8	i	0.71	2.9	0.6
10	Cc1ccc(CN(N=Nc2nonc2N)c2nonc2N)c(C)c1	19	-58	.	.	.	.	0.69	5.2	1.0
11	CC(=O)c1cc(-c2ccccc2)n(CCC(=O)NC2CCCCC2)c1C	6	-6	.	.	.	.	0.69	1.8	1.4
12	Cc1ccc2nc(NCc3ccc(F)cc3)c3nncn3c2c1	.	-16	6	1	-5.5	i	0.69	-32	6.6
13	COc1ccc(C2(C(=O)NCCc3ccccc3)CCCC2)cc1	-4	10	-13	-12	-8.3	i	0.68	6.3	0.2
14	CCOc1ccc(CCNS(=O)(=O)c2cnc[nH]2)cc1OCC	-5	-1	.	.	.	.	0.7	2.2	3.2
15	O=C(Nc1cc(C(=O)N2CCN(c3ccccc3O)CC2)ccc1Cl)c1cccs1	5	0	-18	-22	0.5	i	0.66	1.4	-2.9
16	Cc1ccccc1C(=O)N1CCC(C(=O)OCc2ccccn2)CC1	22	7	4	11	1.0	i	0.69	0.6	-0.8
17	Oc1ccccc1-c1nc(N2CCN(Cc3ccccc3)CC2)c2ccccc2n1	-6	-2	.	.	.	.	0.79	7.9	-0.2
18	NC(=O)CSc1oc(-c2cccs2)nc1S(=O)(=O)c1ccccc1	.	-2	.	.	.	.	0.71	2.4	7.6
19	COc1cccc(N2CCN(c3ccc4nnc(CCC(=O)Nc5ccc(F)cc5F)n4n3)CC2)c1	39	7	18	14	1.9	i	0.65	2.7	1.6
20	CCOC(=O)C1=C(C)N(CCCC(=O)O)C(=O)NC1c1cc2ccccc2c2ccccc12 (stereo not drawn)	-4	.	-6	11	-2.3	i	.	4.5	.
21	CC(OC(=O)c1ccc(Cl)nc1)C(=O)NC1(C#N)CCCCC1 (stereo not drawn)	-18	-13	3	9	-2.3	i	0.67	1.1	8.7
22	CCCn1c(SCC(=O)Nc2cc(S(=O)(=O)N3CCOCC3)ccc2OC)n[nH]c1=O	-9	5	5	1	-0.3	i	0.66	0.8	-0.9
23	Cc1ccc(C)c(S(=O)(=O)N2CCN(C(=O)C3CC3C)CC2)c1 (stereo not drawn)	.	-1	-3	-4	-0.2	i	0.66	1.4	-1.0
24	O=[N+]([O-])c1ccc(C2=NN(c3ccccc3)C(c3ccco3)C2)cc1 (stereo not drawn)	.	-375	.	.	.	i	0.68	6.8	78
25	CC(C)CCN1CCN(Cc2ccc(C#CC(C)(C)O)s2)CC1CCO (stereo not drawn)	-74	2	20	14	0.9	i	0.7	-0.3	-0.4
26	COc1ccc(CCNC(=O)CNC(=O)Cn2cnc3sc(C)c(C)c3c2=O)cc1OC	1	1	.	.	.	.	0.66	2.4	-0.9
27	Cc1cccc(NC(=O)C[n+]2ccc(N(C)C)cc2)c1	-18	-3	11	16	-1.3	i	0.68	1.5	-0.8
28	COc1ccc(-c2n[nH]c3c2C(c2ccc(OC)c(OC)c2)N(c2ccccc2)C3=O)cc1 (stereo not drawn)	-16	-5	.	.	.	.	0.7	4.5	-2.1
29	O=S(=O)(Nc1ccc2c(c1)OCO2)c1cccs1	41	18	.	.	.	.	0.66	0.5	3.2
30	S=C(NCCc1ccccc1)Nc1ccc(N2CCCCC2)cc1	46	-13	2	-3	2.2	i	0.71	1.6	4.2
31	COCCOC(=O)C1=C(C)NC2=C(C(=O)CCC2)C1c1ccc2c(c1)OCO2 (stereo not drawn)	-3	-7	1	2	5.1	i	0.74	-93	-1.2
32	O=C(Nc1ccc(F)cc1)N1CCCN(c2ccc(C(F)(F)F)cn2)CC1	-4	1	7	4	-1.9	i	0.66	4.0	1.0
33	Nc1ccn([C@@H]2O[C@H](C(=O)NCC(F)(F)F)[C@@H](O)[C@H]2O)c(=O)n1	.	.	20	12	2.1	i	.	.	1.1
34	COc1ccccc1N=NC1=C(O)CC(C)(C)CC1=O	-6	-15	12	9	-0.6	.	0.69	4.8	9.0
35	O=C(NCC1CCN(C(=O)c2ccc([N+](=O)[O-])cc2)CC1)C(=O)Nc1ccccc1	1	-5	15	20	0.0	i	0.69	2.1	0.2
36	CC(C)/C=C1\CC/C(=C\c2cccnc2)C1=O	1	5	-2	-2	-6.5	i	0.64	8.6	-4.3
37	COc1cccc(-n2c(SCC(=O)Nc3nccs3)nnc2-c2ccoc2C)c1	2	-12	.	.	.	.	0.75	1.9	-0.5
38	O=C(CCSc1ccc(Cl)cc1)N1CCOCC1	-11	-2	.	.	.	.	0.66	4.4	-2.5
39	Cc1ccc(C(=O)CCC(=O)NNC(=O)c2ccccc2O)cc1	.	-1	12	9	0.1	i	0.65	-15	1.1
40	COc1ccccc1NC(=O)CCS(=O)(=O)c1ccc2c(c1)oc(=O)n2C	3	-2	8	6	-0.2	i	0.72	5.2	-5.0
41	COCCOC(=O)c1c(C)oc2ccc(OCc3ccccc3)cc12	-2	2	-10	-13	-5.3	i	0.67	2.3	-1.6
42	Cc1cc2c(cc1S(=O)(=O)N1CCN(c3ccccc3)CC1)OCC(=O)N2	7	-4	7	-3	0.1	i	0.74	0.9	2.9
43	CCOc1ccc(Nc2nc(N)c([N+](=O)[O-])c(N3CCN(C)CC3)n2)cc1	-15	4	7	13	-2.5	i	0.68	12	2.2
44	Cc1ccc(C(=O)Nc2cccc([N+](=O)[O-])c2)cc1S(=O)(=O)Nc1ccc(C(=O)O)cc1	82*	1	20	16	3.5	.	0.7	6.6	-2.0
45	CC(Oc1ccccc1)C(=O)NCc1cccnc1 (stereo not drawn)	2	-7	8	12	0.1	.	0.71	5.5	-0.1
46	COc1ccccc1N1CCN(C2CCCN(S(=O)(=O)c3ccc(C)cc3)C2)CC1 (stereo not drawn)	46	-3	-3	-10	2.0	i	.	.	0.5

Reprinted at random: 2 records from the list.
cpd	canonical_smiles	ALR inh	B2AR ag	rRNA inh HTS	rRNA inh HTS OD600	rRNA inh HTS RFP	FGF22 binding	Ecoli growth	UCH37 inh	HNF4A DNA FP
44	Cc1ccc(C(=O)Nc2cccc([N+](=O)[O-])c2)cc1S(=O)(=O)Nc1ccc(C(=O)O)cc1	82*	1	20	16	3.5	.	0.7	6.6	-2.0
39	Cc1ccc(C(=O)CCC(=O)NNC(=O)c2ccccc2O)cc1	.	-1	12	9	0.1	i	0.65	-15	1.1

Gathered by group: the entries above with an aryl methoxy group
cpd	canonical_smiles	ALR inh	B2AR ag	rRNA inh HTS	rRNA inh HTS OD600	rRNA inh HTS RFP	FGF22 binding	Ecoli growth	UCH37 inh	HNF4A DNA FP
13	COc1ccc(C2(C(=O)NCCc3ccccc3)CCCC2)cc1	-4	10	-13	-12	-8.3	i	0.68	6.3	0.2
19	COc1cccc(N2CCN(c3ccc4nnc(CCC(=O)Nc5ccc(F)cc5F)n4n3)CC2)c1	39	7	18	14	1.9	i	0.65	2.7	1.6
22	CCCn1c(SCC(=O)Nc2cc(S(=O)(=O)N3CCOCC3)ccc2OC)n[nH]c1=O	-9	5	5	1	-0.3	i	0.66	0.8	-0.9
26	COc1ccc(CCNC(=O)CNC(=O)Cn2cnc3sc(C)c(C)c3c2=O)cc1OC	1	1	.	.	.	.	0.66	2.4	-0.9
28	COc1ccc(-c2n[nH]c3c2C(c2ccc(OC)c(OC)c2)N(c2ccccc2)C3=O)cc1 (stereo not drawn)	-16	-5	.	.	.	.	0.7	4.5	-2.1
34	COc1ccccc1N=NC1=C(O)CC(C)(C)CC1=O	-6	-15	12	9	-0.6	.	0.69	4.8	9.0
37	COc1cccc(-n2c(SCC(=O)Nc3nccs3)nnc2-c2ccoc2C)c1	2	-12	.	.	.	.	0.75	1.9	-0.5
40	COc1ccccc1NC(=O)CCS(=O)(=O)c1ccc2c(c1)oc(=O)n2C	3	-2	8	6	-0.2	i	0.72	5.2	-5.0
46	COc1ccccc1N1CCN(C2CCCN(S(=O)(=O)c3ccc(C)cc3)C2)CC1 (stereo not drawn)	46	-3	-3	-10	2.0	i	.	.	0.5

High-throughput results deposited in PubChem BioAssay by several laboratories.
